Assay outcomes (PubChem BioAssay)
miR-21 reporter – miR-21 reporter, rising signal. HeLa miR-21 FLuc reporter, luciferase, 48 h. Potency, µM (doses to about 38.3 µM), for inactives: top-dose reporter change, positive = more light. 340,000 tested, under 10 active. AID 2288; active = well fitted rising curve with a large enough effect; inconclusive = small, poorly fitted or top-dose-only effect; inactive = no such curve, though single readings can be large or run the other way;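 further: % of control where 0% means no effect; miR-21 action dims this reporter so a rising signal means less miR-21 action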
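HeLa cells stably expressing CMV-driven firefly luciferase with a downstream miR-21 binding sequence, endogenously expressing miR-21, were treated with titrations (up to about 40uM final) for 48 hours at 37 degree Celsius. Luciferase luminescence was read after lysis.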
Active calls of the source: *; ? = inconclusive. Only part of the results is shown, so the mix of outcomes need not match the whole.

SMILES | miR-21 reporter
CCOC(=O)c1ccc(N2C(=O)c3[nH]nc(-c4ccc(OCC)cc4)c3C2c2cccs2)cc1 (stereo not drawn) | 27.5%
O=C(Nc1ccc(Cl)cc1C(F)(F)F)c1cc(S(=O)(=O)NCc2ccccc2)ccc1F | 5.6%
COc1ccccc1C(=O)Nc1cccc(OCc2cc(=O)n3c(C)csc3n2)c1 | -0.5%
COc1ccccc1NC(=O)C1=C(C)Nc2nnnn2C1c1cc(Br)c(O)c(OC)c1 (stereo not drawn) | -0.4%
CCS(=O)(=O)c1c(Nc2ccc(F)c(Cl)c2)sc(C(=O)c2ccccc2)c1N | 3.1%
COc1ccc(-c2cc(C(=O)Nc3c(C(=O)c4ccc(C)c(F)c4)oc4ccccc34)no2)cc1 | -21.1%
Cc1nc(CC(=O)Nc2ccc(C)c(C)c2)cs1 | -29.9%
COc1ccc(CCNC(=O)Cn2cc(C(=O)c3ccc(Cl)cc3)c(=O)c3ccc(C)nc32)cc1OC | -8.3%
CCOc1ccccc1CNC(=O)c1nc(-c2ccc(Cl)cc2)n2c1CCCCC2 | 3.1%
CCc1cccc(NC(c2nnc(-c3ccccc3)o2)c2ccc(F)cc2Cl)c1 (stereo not drawn) | 12.7%
COCCCNC(=O)CN1C(=O)COc2ccc(S(=O)(=O)N3CCCC3)cc21 | 1.3%
COc1ccc(Nc2cc(C(=O)NCCCN(C)c3ccccc3)c3ccccc3n2)c(OC)c1 | 18.5%
COc1ccc(CNC(=O)c2cnc(N3CCCC3)nc2C)c(OC)c1 | -4.6%
COc1ccccc1CNC(=O)CS(=O)(=O)c1cccc2nsnc12 | 3.0%
COc1ccc(N(CC(=O)NCCc2ccccc2)S(=O)(=O)c2ccc(OC)c(OC)c2)cc1 | -5.8%
Cc1ccc(-c2ccc(=O)n(C(C)C(=O)Nc3ccccc3Cl)n2)cc1C (stereo not drawn) | -9.7%
COc1ccccc1CCNC(=O)C(=O)NCC(c1ccco1)S(=O)(=O)c1cccs1 (stereo not drawn) | 7.3%
COc1ccc(S(=O)(=O)n2nc(C)c(S(=O)(=O)N3CCCCC3)c2C)cc1 | -2.1%
Cc1ccc(S(=O)(=O)c2cnc(SCC(=O)Nc3cc(C)cc(C)c3)nc2N)cc1 | 22.8%
COc1ccc(CC(=O)Nc2ccc3nc(Nc4cccc(Cl)c4)cc(C)c3c2)cc1 | 17.2%
CC1=C(C(=O)Nc2cc(Cl)ccc2C)C(c2ccccc2F)n2ncnc2N1 (stereo not drawn) | 3.2%
CCOc1cc(C2NC(=O)c3c(sc4c3CCN(C)C4)N2)ccc1OC(=O)c1ccc(F)cc1 (stereo not drawn) | -12.6%
COc1ccc(Br)cc1C1CC(=O)Nc2c1c(C)nn2-c1nc(C)cc(C)n1 (stereo not drawn) | -0.2%
COc1cc(C)ccc1OCCSc1nc2ccc(NC(=O)c3ccc(C)cc3)cc2s1 | -14.7%
CCOC(=O)c1scc(-c2ccccc2)c1S(=O)(=O)Nc1ccc(N(C)C)cc1 | -3.1%
CC(=O)N1CCc2cc(S(=O)(=O)NC(CC(C)C)C(=O)NCCc3ccccc3)ccc21 (stereo not drawn) | 0.2%
CCOC(=O)c1c(NC(=O)c2cc3ccccc3c(=O)o2)sc2c1CCCC2 | 0.1%
CCOc1ccccc1C(=O)Oc1c(Sc2ccccc2)c(C)nn1C(C)(C)C | 5.3%
CCOC(=O)c1cc(-c2ccc(OC)cc2)n(CCC(=O)NCc2ccccc2OC)c1C | 4.6%
CCOc1ccc(CC(=O)Nc2nnc3n2CCS3)cc1 | 1.6%

SMILES | miR-21 reporter
CC(=O)c1ccc(N2CCN(c3ncnc4c3c(-c3ccccc3)cn4-c3ccc(Cl)cc3)CC2)cc1 | -2.9%
CCOc1ccc(CNC(=O)Cn2c(=O)c3cccn3c3ccc(F)cc32)cc1OC | -18.7%
CCc1ccc(NC(=O)CSc2nccn2C2CCCC2)cc1 | -14.8%
CCCOc1cccc(C(=O)N(Cc2cc(OC)c(OC)c(OC)c2)C2CCS(=O)(=O)C2)c1 (stereo not drawn) | 2.2%
Cc1cccc(C)c1OCCn1c(C2CC(=O)N(c3cccc(Cl)c3)C2)nc2ccccc21 (stereo not drawn) | ?
COc1ccccc1CNC(=O)Cn1ncn2c(cc3sccc32)c1=O | -0.2%
O=C(CSCc1ccccc1Cl)N1CCN(c2ccc(Cl)cc2)CC1 | -0.7%
Cc1cccc(NC(=O)CN2C(=O)CCn3nc(-c4cccn4C)cc32)c1C | -18.8%
Cc1ccc(CNC(=O)c2c(O)nc3cc(C)ccn3c2=O)cc1 | 0.1%
COc1ccc(S(=O)(=O)n2nc(C)c(S(=O)(=O)N3CCCCCC3)c2C)cc1C | -1.9%
COc1ccc(C)cc1-n1nnc(S(=O)(=O)c2ccc(C)cc2)c1C | 10.0%
CCC1CN(C(=O)N2CCC(C(=O)NCCCc3ccccc3)CC2)c2ccccc2O1 (stereo not drawn) | ?
CCOc1ccc(C2=C(C(=O)CC)Sc3nncn3N2C(=O)CC)cc1 | 28.6%
Cc1ccc(-n2ncc(C(=O)NCc3ccccn3)c2C2CCN(C(=O)OC(C)(C)C)CC2)c(C)c1 | -1.0%
Cc1ccc(CCNC(=O)c2cc3c(-c4ccccc4F)nn(C)c3s2)cc1 | 8.5%
O=C(CCS(=O)(=O)c1cc(Br)cc2c1N(C(=O)C1CC1)CC2)NCc1ccccc1Cl | -2.9%
CC(C)CCNC(=O)CN1C(=O)CSc2ccc(S(=O)(=O)N3CCCCC3)cc21 | 1.2%
CCOC(=O)C1CCN(S(=O)(=O)c2cc(-c3onc(C)c3C)ccc2OC)CC1 | 19.1%
Cn1c(=O)n(C)c2cc(N3CCCCC3)c(NC(=O)c3c(F)cccc3F)cc21 | 4.9%
Cc1ccc(N2C(=O)CSC23C(=O)N(CC(=O)NC2CCCCC2)c2ccccc23)cc1 (stereo not drawn) | 1.2%
Cc1cccc(CCNC(=O)c2nn(C)c3c2CSc2ccccc2-3)c1 | -6.0%
CCn1cc(CCC(=O)NCc2ccc(C)cc2)c2ccccc21 | -0.3%
CCCSc1nc2sc3c(c2c(=O)n1-c1cccc(Br)c1)CC(C)(C)OC3 | -3.3%
CC(CCO)Nc1nc2c(c(=O)n(C)c(=O)n2C)n1Cc1ccc(Br)cc1 (stereo not drawn) | -11.6%
COc1ccc(OC)c(CNC(=O)Nc2cn(CC(C)C)c(=O)c3ccccc23)c1 | -3.3%
O=C(NCCCN1CCN(c2ccccc2F)CC1)c1ccc2nc(N3CCCCC3)sc2c1 | -18.9%
CCOc1ccc(-c2nnc(Nc3ccc(S(N)(=O)=O)cc3)c3ccccc23)cc1 | -9.0%
Cc1c(Cl)cccc1NC(=O)C1CCN(c2ncnc3c2nc2n3CCCCC2)CC1 | 0.0%
COc1cc(Cl)c(C)cc1NC(=O)c1nn(-c2ccc(C)cc2)c(=O)n(C)c1=O | -4.5%
Cc1ccccc1-c1nc2cc(NC(=O)Cc3ccc(Cl)cc3)ccc2o1 | -29.3%

Four compounds out of the list above, sorted by their value in miR-21 reporter, highest first:
| smiles | miR-21 reporter |
| --- | --- |
| COc1ccc(C)cc1-n1nnc(S(=O)(=O)c2ccc(C)cc2)c1C | 10.0% |
| COc1ccc(S(=O)(=O)n2nc(C)c(S(=O)(=O)N3CCCCCC3)c2C)cc1C | -1.9% |
| COc1cc(Cl)c(C)cc1NC(=O)c1nn(-c2ccc(C)cc2)c(=O)n(C)c1=O | -4.5% |
| CCc1ccc(NC(=O)CSc2nccn2C2CCCC2)cc1 | -14.8% |

Quoted at random: 3 compounds from above.
SMILES | miR-21 reporter
Cn1c(=O)n(C)c2cc(N3CCCCC3)c(NC(=O)c3c(F)cccc3F)cc21 | 4.9%
CC(CCO)Nc1nc2c(c(=O)n(C)c(=O)n2C)n1Cc1ccc(Br)cc1 (stereo not drawn) | -11.6%
CC(=O)c1ccc(N2CCN(c3ncnc4c3c(-c3ccccc3)cn4-c3ccc(Cl)cc3)CC2)cc1 | -2.9%

(cont.)
SMILES | miR-21 reporter
O=C(NCC1CCCO1)c1c[nH]c2ccc(S(=O)(=O)Nc3ccc(F)cc3F)cc2c1=O (stereo not drawn) | -5.7%
Cc1ccc(NC(=O)CSc2nnc(-c3nnn(-c4ccc(F)cc4)c3C)o2)cc1Br | -29.9%
Cc1cc(C)c2c(=O)cc(C(=O)Nc3sc4c(c3C(=O)NCc3cccnc3)CCCC4)oc2c1 | 0.3%
Cc1nn2c(-c3ccco3)ccnc2c1-c1ccc(F)cc1 | -19.6%
Cc1oc2ncn(C)c(=O)c2c1C(=O)NCc1ccccc1 | 0.9%
CC1=C(C(=O)OCc2ccc(C)cc2)C(c2c(Cl)cccc2Cl)CC(=O)N1 (stereo not drawn) | -1.0%
COc1ccc(NS(=O)(=O)c2ccc3c(c2)CC(C)N3C(=O)C2CCC2)cc1OC (stereo not drawn) | 21.5%
CCOC(=O)c1[nH]c(C)c(CCC(=O)N2CCN(c3cc(Cl)ccc3C)CC2)c1C | ?
COc1ccccc1C(=O)Nc1ccc(OCc2cc(=O)n3ccsc3n2)cc1 | -18.3%
CCN(C(=O)CSc1nnc(C)n2c1cc1occc12)c1ccccc1 | ?
Cc1ccc(C)c(CSc2nnc(C)n3c2cc2sccc23)c1 | -12.7%
CC(=O)N1CCc2cc(Br)cc(S(=O)(=O)N3CCN(c4cccc(C(F)(F)F)c4)CC3)c21 | 0.8%
Cc1ccccc1Nc1c(-c2c[nH]c3ccccc23)nc2ccc(Cl)cn12 | -5.2%
CCOC(=O)Cc1ccc(NC(=O)n2ncc3cc(Cl)ccc32)cc1 | 16.9%
Cc1c(NC(=O)CC(C)C)cccc1-c1nc2cccnc2s1 | -6.8%
COc1cccc(NC(=O)CSC2=Nc3ccccc3C3=NC(CCC(=O)NCc4ccco4)C(=O)N23)c1 (stereo not drawn) | 0.5%
COc1ccc(-n2ccn(CC(=O)NCc3ccc(C)cc3)c(=O)c2=O)cc1OC | -1.9%
COc1ccc(OCc2nnc(-c3ccccc3)o2)cc1 | -63.0%
O=C(Nc1cccc(Cl)c1)C1CCCN1S(=O)(=O)c1cccc2cccnc12 (stereo not drawn) | 23.4%
COc1cc2nc(SCC(=O)Nc3ccccc3C)n3nc(CCn4c(C)nc5ccccc54)nc3c2cc1OC | -7.6%
Cc1ccc(CN2COc3c(Cl)cc4c(-c5ccccc5)cc(=O)oc4c3C2)cc1 | -0.9%
CCOc1ccc(-c2cccc(NS(=O)(=O)c3ccc(F)cc3F)c2)nn1 | -7.4%
COc1ccccc1CNC(=O)CN1C(=O)COc2ccc(S(=O)(=O)Nc3ccccc3)cc21 | 0.2%
COc1ccc(NC(=O)c2c(C(=O)Nc3ccccc3)sc3nc(C)cc(=O)n23)cc1 | -58.9%
CSc1cccc(NC(=O)CC(c2ccc(F)cc2)N2Cc3ccccc3C2=O)c1 (stereo not drawn) | ?
CCOC(=O)C1=C(CN2CCN(c3cc(C)ccc3C)CC2)NC(=O)NC1c1ccccc1 (stereo not drawn) | 25.6%
Cn1c(/C(C#N)=C/c2ccc(C(F)(F)F)cc2)nc2ccccc21 | -20.3%
CCn1cc2nc(SCc3cccc(Cl)c3)n(Cc3ccc(C)cc3)c(=O)c2n1 | 25.5%
COc1cc2c(cc1NC(=O)C(C)Oc1ccc(Cl)cc1Cl)oc1ccccc12 (stereo not drawn) | 0.6%
CC(C)c1ccc(C2N3CC4(C)CN2CC(c2ccccc2)(C3)C4=O)cc1 (stereo not drawn) | 5.4%

SMILES | miR-21 reporter
CCN(CC)CCCNC(=O)CSc1nc2nc(C)c(Cc3ccccc3C)c(C)n2n1 | 1.7%
Cc1ccc2c(=O)cc(CSCC(=O)Nc3nnc(C)s3)[nH]c2c1 | 2.9%
CC(C)(Oc1ccc(Br)cc1)C(=O)Nc1cc(-c2nc3ccccc3[nH]2)ccc1Cl | -12.0%
CCc1ccc(-n2c(=O)c3ccccc3n(Cc3ccccc3C#N)c2=O)cc1 | -5.2%
CC1=C(C(=O)Nc2ccccc2)C(c2ccncc2)n2nc(SCc3ccccc3)nc2N1 (stereo not drawn) | 6.2%
Cc1cc(C)c(NC(=O)Cn2c(=O)n(CC(=O)NCCc3ccccc3)c(=O)c3ccccc32)c(C)c1 | -0.2%
COc1ccc(/C=C\c2onc(C)c2S(=O)(=O)N2CCC(C(=O)Nc3ccc(Cl)cc3)CC2)cc1 | -3.6%
Cc1ccccc1NC(=O)CSc1nnc(-c2cccc(Cl)c2)o1 | -43.6%
Cc1ccc(-n2c(SCC(=O)N3CCCc4ccccc43)nc3c([nH]c4ccccc43)c2=O)cc1 | -36.9%
Cc1ccc(-c2cc(-c3ccc4c(c3)NC(=O)CO4)nc3c2COc2ccc(C)cc2-3)cc1 | -7.1%
Cc1ccc(-c2nnc(Nc3cccc(O)c3)c3ccccc23)cc1S(=O)(=O)N1CCN(C)CC1 | 11.9%
CCc1c(CN2CCN(c3ccc(F)cc3)CC2)csc1C | 0.4%
COc1cccc(NC(=O)Cn2c(=O)n(-c3ccccc3)c(=O)c3ccc(C(=O)NCc4ccc5c(c4)OCO5)cc32)c1 | -1.7%
CCOC(=O)c1ccc(N2C(=O)c3n[nH]c(C)c3C2c2ccc(O)c(OC)c2)cc1 (stereo not drawn) | -11.2%
CCOc1ccc(CCNC(=O)c2ccc(CS(=O)(=O)Cc3ccccc3Cl)o2)cc1OCC | 0.8%
CCOc1ccc(NC(=O)Cn2nnc(-c3nc(-c4ccncc4)no3)c2N)cc1 | 1.4%
Cc1cccc(CN2C(=O)/C(=C\c3ccc(C(=O)NCCCN4CCN(C)CC4)cc3)Oc3ccccc32)c1 | -5.1%
